Screens: PubChem BioAssay, National Center for Advancing Translational Sciences (NCATS)
D2 ag = agonists of human D2 dopamine receptor (beta-arrestin) | P14416 | DiscoveRx PathHunter D2 beta-arrestin, luminescence, 90 min; 100% = 57 uM dopamine signal | activation, % (test concentration not listed) | 0.084% of 360,000 active | AID 624465; in the data active = activation above about 40%; inconclusive = about 15% to 40%; inactive = below about 15%; note: compound concentration not given in the record; the text of the record calls up to 30% inactive
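DiscoveRx PathHunter D2 beta-arrestin cells (2,100/well) attached overnight, then compound-stimulated 90 min at 37 C in HBSS/10 mM HEPES/0.1% Tween-20 buffer; beta-galactosidase complementation read by luminescence after 1 h at ambient temperature. Dopamine 57 uM final (EC100) as control.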
TRPML1 ag = activates the human TRPML1 channel; Q9GZU1; TRPML1-expressing cells, Ca2+ dye fluorescence, FDSS; host cell line not named in the record; reference of the full effect not given here; activation, % (concentration not given with the values); 0.12% of 410,000 active; AID 624414; in the data active = activation above about 50%; inconclusive = about 30% to 50%; inactive = below about 30%; note: 0% is about no effect; the text of the record puts the active cut at 80%
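Cells: TRPML1-DL, 1X Tet inducer, ~16 h at 37 degrees C/5% CO2. Dye: ABD Ca8 no-wash + quencher, 45-90 min RT. Read: 10 s baseline, compound add, 110 s agonist phase; 54-4 EC80 (4uM final), 110 s antagonist phase.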
CtBP-E1A inh = inhibitors of CtBP/E1A interaction. AlphaScreen GST-E1A/His-CtBP binding, 1536-well; active compounds read low; control for the full effect not named in the record. activity change, % (concentration not given with the values). 0.49% of 340,000 active; in the data active means activity change below about -65%; inconclusive means about -30% to -65%; inactive means above about -30%; note: % is set by controls: 0 for no effect and ±100 for the full control effect
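Homogeneous bead-based format: GST-tagged E1A captured on glutathione donor beads, His-tagged CtBP on nickel acceptor beads; compounds precede bead addition by 2 h at 37 °C.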
D2 potentiator = human D2 receptor positive allosteric modulation; DiscoveRx D2 beta-arrestin cells, luminescence, 90 min; 100% = 57 uM dopamine signal; P14416; 0.23% of 360,000 active; AID 624464; potentiation, % (test concentration not listed); active = potentiation of 50% or more; inconclusive = 30% to 50%; inactive = 30% or less;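 note: compound concentration not given in the record; tested on top of an EC20 dose of dopamine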
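PathHunter beta-arrestin assay in DiscoveRx D2 cells. Compounds were added with an EC20 of dopamine (50 nM final) for 90 min at 37 deg C. Luminescence was read 1 h after detection reagent, with 57 uM dopamine as the EC100 control.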
Six1-Eya2 blk = inhibitors of human Six1/Eya2 interaction; AID 651725; 0.56% of 360,000 active; activity change, % (no concentration beside the values); AlphaScreen GST-Six1/His-Eya2 binding, biochemical; active compounds read low; control for the full effect not named in the record; in the data active = activity change below about -65%; inconclusive = about -30% to -65%; inactive = above about -30%; note: % is set by controls: 0 for no effect and ±100 for the full control effect
Target sequence (O00167 whole entry, looked up): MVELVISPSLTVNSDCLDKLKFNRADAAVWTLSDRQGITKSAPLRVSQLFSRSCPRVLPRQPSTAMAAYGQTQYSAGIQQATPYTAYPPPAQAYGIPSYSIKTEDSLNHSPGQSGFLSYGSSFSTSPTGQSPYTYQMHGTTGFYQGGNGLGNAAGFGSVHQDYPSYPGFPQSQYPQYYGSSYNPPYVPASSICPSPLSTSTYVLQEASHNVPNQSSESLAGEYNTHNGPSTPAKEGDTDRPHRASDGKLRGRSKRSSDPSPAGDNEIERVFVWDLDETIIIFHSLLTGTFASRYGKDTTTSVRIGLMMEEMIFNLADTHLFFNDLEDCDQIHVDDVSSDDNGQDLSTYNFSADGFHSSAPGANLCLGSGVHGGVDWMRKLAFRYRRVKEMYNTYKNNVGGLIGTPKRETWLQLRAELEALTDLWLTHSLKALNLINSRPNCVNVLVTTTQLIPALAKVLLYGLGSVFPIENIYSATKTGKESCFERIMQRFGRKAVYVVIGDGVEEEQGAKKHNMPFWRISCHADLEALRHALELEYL
Target sequence (Q15475 whole entry, looked up): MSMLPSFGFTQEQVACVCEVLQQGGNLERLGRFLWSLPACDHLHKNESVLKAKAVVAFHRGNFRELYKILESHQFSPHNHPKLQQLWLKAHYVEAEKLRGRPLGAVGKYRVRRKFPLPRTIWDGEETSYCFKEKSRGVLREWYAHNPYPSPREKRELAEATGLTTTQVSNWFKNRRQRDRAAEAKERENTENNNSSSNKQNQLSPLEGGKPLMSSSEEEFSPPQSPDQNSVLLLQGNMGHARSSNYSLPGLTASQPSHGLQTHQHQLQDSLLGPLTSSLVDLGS
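GST-Six1 + His-Eya2 (5X stock: 250/500 nM); Tris pH 8.0, 300 mM NaCl, 0.05% BSA, 0.02% Tween 20; GSH donor/Ni acceptor beads; 1 h 37 °C dark; AlphaScreen readout.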
PINK1 modulator = PINK1 expression modulation; PINK1 immunofluorescence, high-content cytometry, 24 h; Potency, µM (highest dose often 76.6 µM), without a hit: at the top dose activation (PINK1 increase), actives largely listed as activators; 0.2% of 410,000 active; AID 624263; active = well fitted activation curve with a large enough effect; inconclusive = small, poorly fitted or top-dose-only effect; inactive = flat fitted curve, though single readings scatter; cell line not stated here;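 note: potency is the fitted concentration of half-maximal effect; % of control where 0% means no effect; nearly all actives have a fitted effect of over 65% in size; a mitochondrial uncoupler was the plate control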
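Decision-based qHTS: stable cells, 24 h exposure to five compound concentrations, CCCP as control. Fixed cells stained for PINK1 plus nuclear, mitochondrial and cell markers, cytometer read.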
Numbers without * were called inactive; ? = inconclusive; nt = not tested or not shown; [ ] = another dose, or the depositor's remark.

The opening 5 entries as a preview:
SMILES	D2 ag	TRPML1 ag	CtBP-E1A inh	D2 potentiator	Six1-Eya2 blk	PINK1 modulator
CCN(CC)C(=O)C1=C(C)N(Cc2ccc(F)cc2)C(=O)C(CC(=O)NCCCN(C)C)C1 (configuration not stated)	-1.9	nt	5	nt	2	1.0%
Cc1ccc(NC(=O)c2ccc(CNc3c(N4CCOCC4)c(=O)c3=O)cc2)cc1	-3.2	-0.4	1	-6	-2	1.2%
CCc1nn(C(CC)C(=O)NCc2cccs2)c(=O)c2cc3occc3n12 (configuration not stated)	1.0	0.3	1	-9	0	-1.1%
COc1ccc(CCN2C(=O)C(Oc3ccccc3C)C2c2ccc3c(c2)OCO3)cc1OC (configuration not stated)	-2.0	-0.9	-9	7	-21	-1.8%
Cc1cc(C)c(S(=O)(=O)N2CCOC2CNC(=O)C(=O)NCc2ccncc2)c(C)c1 (configuration not stated)	1.0	-0.3	6	-16	4	0.8%

The whole of this part, previewed entries included:
SMILES	D2 ag	TRPML1 ag	CtBP-E1A inh	D2 potentiator	Six1-Eya2 blk	PINK1 modulator
CCN(CC)C(=O)C1=C(C)N(Cc2ccc(F)cc2)C(=O)C(CC(=O)NCCCN(C)C)C1 (configuration not stated)	-1.9	nt	5	nt	2	1.0%
Cc1ccc(NC(=O)c2ccc(CNc3c(N4CCOCC4)c(=O)c3=O)cc2)cc1	-3.2	-0.4	1	-6	-2	1.2%
CCc1nn(C(CC)C(=O)NCc2cccs2)c(=O)c2cc3occc3n12 (configuration not stated)	1.0	0.3	1	-9	0	-1.1%
COc1ccc(CCN2C(=O)C(Oc3ccccc3C)C2c2ccc3c(c2)OCO3)cc1OC (configuration not stated)	-2.0	-0.9	-9	7	-21	-1.8%
Cc1cc(C)c(S(=O)(=O)N2CCOC2CNC(=O)C(=O)NCc2ccncc2)c(C)c1 (configuration not stated)	1.0	-0.3	6	-16	4	0.8%
CC(=O)Nc1cccc(OCC(O)Cn2cnc3ccccc32)c1 (configuration not stated)	0.3	0.8	4	0	0	-0.2%
Cc1sc(NC(=O)CSc2nnnn2C)c(C#N)c1C	-2.7	1.2	nt	-1	-9	0.8%
CC(=O)N1CCN(CC(=O)Nc2cc(S(=O)(=O)N3CCCCC3)ccc2C)CC1	0.3	0.6	9	1	4	1.5%
COc1ccc(/C=C2\C(=O)N(c3c(Cl)cc(Cl)cc3Cl)N=C2NC(=O)c2cccc([N+](=O)[O-])c2)cc1	-1.4	-0.5	-2	3	-79*	4.5%
Cc1ccc(S(=O)(=O)N(C)C)cc1NS(=O)(=O)c1ccc(Cl)s1	-0.8	0.1	-1	-3	24	-1.5%
O=C(CNC(=O)c1ccccc1F)NC1CCN(Cc2ccccc2)CC1	-0.9	-0.4	-1	-6	0	1.1%
CCc1ccc(CN2CCC(n3nccc3NC(=O)c3ccccc3)CC2)o1	-2.4	0.0	-11	-36	-6	-0.1%
O=C(Cn1cnc2ccccc21)N/N=C/c1ccccc1[N+](=O)[O-]	0.1	0.0	-1	6	-8	-2.9%
CCc1ccc(NC(=O)c2noc3c2CCc2ccccc2-3)cc1	0.9	0.2	7	-4	19	7.0%
O=C(COC(=O)c1ccccc1F)Nc1cccnc1Cl	-1.1	0.8	2	1	1	2.3%
COC(=O)c1ccccc1OCCCN(C)C	-3.3	0.2	5	-14	9	0.1%
CCn1c(C)nc2cc(S(=O)(=O)C(F)F)ccc21	1.2	0.5	3	6	3	13%[38.3 µM]
COc1cccc(NC(=O)C2(C)CCN2C(=O)CC2CC2)c1 (configuration not stated)	7.8	-0.7	9	2	0	1.2%
CC(=O)c1ccc(N2CCN(c3ccccc3O)CC2)c([N+](=O)[O-])c1	-0.3	-0.5	-10	4	-18	-0.8%
CCC(=O)Nc1nnc(S(=O)(=O)N2CCCc3ccccc32)s1	-1.0	1.0	-1	0	-5	8.9%
O=c1c2ccccc2nc2n1CCS2(=O)=O	2.6	0.5	6	-4	3	-0.9%
O=C1NC[C@H](CC2CCCCC2)N(CCc2cccc(F)c2)C1=O	-1.6	0.2	-1	-61	0	-0.8%
O=C(NCC1CCN(Cc2ccccc2F)CC1)Nc1cc(F)ccc1F	-14	1.5	7	-26	1	3.0%
CCCN1CCC(CCOc2ccccc2)(C(=O)OCC)CC1	-4.1	0.7	10	-5	-1	-1.0%
Cc1ccc(OCc2nc(-c3ccc(Cl)cc3)n[nH]2)cc1	-0.3	1.9	4	-6	-1	?

The list goes on.
SMILES	D2 ag	TRPML1 ag	CtBP-E1A inh	D2 potentiator	Six1-Eya2 blk	PINK1 modulator
O=C(CCS(=O)(=O)c1ccc(Br)cc1)N1CCN(Cc2ccccc2)CC1	-6.5	0.0	-3	-14	0	1.6%
CCCS(=O)(=O)c1nc(S(=O)(=O)c2ccc(C)cc2)c(N2CCN(C)CC2)s1	-11	-0.2	1	-30	-2	-1.2%
COc1ccc(Cn2nnnc2C(C(C)C)N2CCN(c3ccccc3OC)CC2)cc1 (configuration not stated)	-1.2	1.5	21	-4	4	0.0%
Cc1cc(C(=O)N2CCCC(C(=O)c3cccc4ccccc34)C2)nc(C)n1 (configuration not stated)	-3.8	-0.5	nt	-13	6	-0.5%
CCN(CC)CCn1c(=S)[nH]c2cc(C(=O)NCc3ccc(C)cc3)ccc2c1=O	-0.2	-0.4	-5	-14	-1	-1.0%
Cc1ccccc1-c1nnc(SCc2ccccc2F)o1	-1.8	-0.1	55	-7	55	?
CCOC(=O)C1=C(COC(=O)/C=C/c2ccc(C)o2)NC(=O)NC1C (configuration not stated)	-7.5	0.6	-12	1	-8	0.5%
CC(C)OP(=O)(OC(C)C)C(Nc1ccccn1)c1ccc(F)cc1 (configuration not stated)	-3.8	0.9	15	-3	9	1.6%
O=C(N/N=C/c1ccoc1)c1ccc(Cl)cc1	5.6	-0.4	-17	-39	-15	-0.8%
Cc1ccc(SCC(=O)OCC(=O)NC2CCCCCCC2)cc1	-1.2	0.1	14	-9	8	-1.1%
COc1ccc(NC(=O)CCNC(=O)Cn2cnc3sc4c(c3c2=O)CCCC4)cc1OC	4.4	1.6	0	-10	-3	-1.4%
CCN(C(=O)c1cn(C)c(=O)c2cc(OC)c(OC)cc12)c1ccccc1C	-3.3	0.6	3	1	2	2.4%
CCNC(=S)NC1CC2CCCC(C1)N2CCc1ccccc1 (configuration not stated)	-4.4	0.2	-9	-4	-4	-0.2%
Cc1ccc(NC(=O)c2sc3ncn(CC(=O)N4CCN(c5ccccn5)CC4)c(=O)c3c2C)cc1F	0.8	0.5	-4	-7	-6	2.0%
COc1cc(NC(=O)c2ccco2)ccc1NC(=O)C(C)C	1.1	0.2	8	3	3	-0.2%[38.3 µM]
CSc1ncccc1C(=O)OCC(=O)N(CC(C)C)c1c(N)n(Cc2ccccc2)c(=O)[nH]c1=O	-2.6	-0.6	-2	-10	4	-0.6%
CC(C)Oc1ccc(C(=O)Nc2ccc([N+](=O)[O-])cc2)cc1	-3.0	-0.6	nt	-13	-3	1.9%
CCOC(=O)/C=C1\SCC(=O)N1CC(=O)Nc1ccc2c(c1)CCC2	-2.1	0.9	-2	-13	-1	-0.1%[38.3 µM]
Cc1cccc(NC2=C/C(=N/S(=O)(=O)c3cccs3)c3ccccc3C2=O)c1	?	1.7	?	96*	-23	1.5%
O=C(CCN1C(=O)S/C(=C\C=C\c2ccccc2)C1=O)Nc1ccc(O)cc1	2.1	0.3	nt	-5	8	1.6%
CON(C)S(=O)(=O)c1cccc(C(=O)Oc2ccc(N(C)S(=O)(=O)c3ccccc3)cc2)c1	-2.2	0.3	2	1	-6	-1.5%
CCN(CC(=O)NCc1ccc(Cl)cc1)C(=O)COc1cccc(Cl)c1	-6.4	1.3	8	-62	8	-1.3%
Cc1ccc(-c2n[nH]c(=O)c3ccccc23)cc1S(=O)(=O)Nc1ccc(F)cc1	3.2	2.3	0	1	-1	8.1%
O=C(Nc1ccccc1C(F)(F)F)c1ccc2nccnc2c1	-4.4	-0.3	9	0	2	0.3%
COc1ccc(/C=N/NS(=O)(=O)c2ccc(C)cc2)cc1OC(=O)c1ccccc1	0.0	1.0	-14	-20	-24	1.6%

Profiles as entered above. Screens in order: D2 ag | TRPML1 ag | CtBP-E1A inh | D2 potentiator | Six1-Eya2 blk | PINK1 modulator
CCNC(=S)NC1CC2CCCC(C1)N2CCc1ccccc1 (configuration not stated) as listed: -4.4 | 0.2 | -9 | -4 | -4 | -0.2%
CCN(C(=O)c1cn(C)c(=O)c2cc(OC)c(OC)cc12)c1ccccc1C as listed: -3.3 | 0.6 | 3 | 1 | 2 | 2.4%
CC(C)Oc1ccc(C(=O)Nc2ccc([N+](=O)[O-])cc2)cc1 as listed: -3.0 | -0.6 | nt | -13 | -3 | 1.9%
Cc1cccc(NC2=C/C(=N/S(=O)(=O)c3cccs3)c3ccccc3C2=O)c1 as listed: ? | 1.7 | ? | 96* | -23 | 1.5%

(more compounds)
SMILES	D2 ag	TRPML1 ag	CtBP-E1A inh	D2 potentiator	Six1-Eya2 blk	PINK1 modulator
Cc1cc(NC(=S)N(CCN2CCOCC2)Cc2ccccc2F)ccc1Cl	-8.5	0.9	0	-8	-11	2.2%
COc1cc(C(=O)NCCc2nc3ccccc3n2C)cc(OC)c1OC	0.3	-0.3	1	-12	4	nt
Cc1ccc(S(=O)(=O)N2CCC(C(=O)OC(C)C(=O)NC3CCCCC3C)CC2)cc1 (configuration not stated)	1.4	-2.1	nt	10	-1	3.6%
COc1ccc(NC(=O)C(c2ccccc2)N(C)C(=O)c2cnccn2)cc1 (configuration not stated)	-2.1	-0.2	-4	-5	3	-1.6%
NC(=O)c1cc(Cc2ccccc2)sc1NC(=O)c1ccco1	6.2	2.6	?	-9	-27	4.1%[38.3 µM]
Nc1ccccc1C(=O)NC12CC3CC(CC(C3)C1)C2	-0.5	nt	nt	-6	6	0.8%
CC(NC(=O)c1ccccc1Cl)C(=O)O (configuration not stated)	2.5	0.8	-1	10	4	nt
Cc1c(OCc2ccc(C(=O)O)o2)ccc2c3c(c(=O)oc12)CCC3	2.3	-0.1	9	7	-7	nt
COc1cccc(NC(=O)C(Sc2nnnn2C)c2ccccc2)c1 (configuration not stated)	2.6	3.7	1	-8	3	-1.2%
COc1cc2c(cc1OC)C(c1cccs1)N(C(=S)NC(C)C)CC2 (configuration not stated)	-1.5	-0.2	-9	-5	-7	1.6%
CCCOc1ccc(/C=N/NC(=O)CN2CCCCC2)cc1	-2.8	0.4	-2	-7	2	0.4%
OCCC1CN(Cc2cc3c(cc2Cl)OCO3)CCN1C1CCCCC1 (configuration not stated)	-4.9	2.9	9	-23	-1	-0.1%
CC(C)CNC(=O)c1cccc2c1-c1ccccc1C2=O	7.0	1.2	4	6	5	1.4%
COC(=O)Cc1c(C)c2ccc(OC(=O)c3ccco3)cc2oc1=O	-2.7	-0.6	8	2	-17	0.7%
COCCCNCCOc1cc(C(C)C)ccc1C	-4.0	-0.3	8	-34	5	-0.2%
CSC1=NCCN1C(=O)c1c(F)cccc1Cl	0.5	0.1	4	-6	8	1.0%
